# GLA inh pH 4.5: inhibitors of human alpha-galactosidase A at pH 4.5; P06280; purified enzyme, 4-MU-alpha-Gal fluorescence, pH 4.5; activity change, negative = inhibition, % at 105 µM; 230,000 tested, under 10 active; AID 1467; inconclusive = small, poorly fitted or top-dose-only inhibition, or a rising curve; inactive = flat fitted curve, though single readings scatter; no compound was filed as active;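 further: 0% = full activity with enzyme and -100% = basal without enzyme; dose as in the result columns while the protocol names 77 µM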
# Rango complex inh: inhibitors of Rango-importin beta complex formation; Q14974; AID 540263; hit rate 0.031% among 340,000; Rango CFP/YFP FRET sensor + importin beta, 45 min; Potency, µM (titrated, usually from 92.2 µM), for inactives: at the top dose inhibition of complex formation; active = rising FRET ratio curve, often small or poorly fitted; inconclusive = mostly compound fluorescence or quenching in the first reads; inactive = flat curves in all reads;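 further: potency means the concentration at half of the fitted maximal effect; 0% = DMSO wells and 100% = buffer wells lacking importin beta; nearly all actives have a fitted effect of over 15% in size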
# Target sequence (Q14974 whole entry, looked up): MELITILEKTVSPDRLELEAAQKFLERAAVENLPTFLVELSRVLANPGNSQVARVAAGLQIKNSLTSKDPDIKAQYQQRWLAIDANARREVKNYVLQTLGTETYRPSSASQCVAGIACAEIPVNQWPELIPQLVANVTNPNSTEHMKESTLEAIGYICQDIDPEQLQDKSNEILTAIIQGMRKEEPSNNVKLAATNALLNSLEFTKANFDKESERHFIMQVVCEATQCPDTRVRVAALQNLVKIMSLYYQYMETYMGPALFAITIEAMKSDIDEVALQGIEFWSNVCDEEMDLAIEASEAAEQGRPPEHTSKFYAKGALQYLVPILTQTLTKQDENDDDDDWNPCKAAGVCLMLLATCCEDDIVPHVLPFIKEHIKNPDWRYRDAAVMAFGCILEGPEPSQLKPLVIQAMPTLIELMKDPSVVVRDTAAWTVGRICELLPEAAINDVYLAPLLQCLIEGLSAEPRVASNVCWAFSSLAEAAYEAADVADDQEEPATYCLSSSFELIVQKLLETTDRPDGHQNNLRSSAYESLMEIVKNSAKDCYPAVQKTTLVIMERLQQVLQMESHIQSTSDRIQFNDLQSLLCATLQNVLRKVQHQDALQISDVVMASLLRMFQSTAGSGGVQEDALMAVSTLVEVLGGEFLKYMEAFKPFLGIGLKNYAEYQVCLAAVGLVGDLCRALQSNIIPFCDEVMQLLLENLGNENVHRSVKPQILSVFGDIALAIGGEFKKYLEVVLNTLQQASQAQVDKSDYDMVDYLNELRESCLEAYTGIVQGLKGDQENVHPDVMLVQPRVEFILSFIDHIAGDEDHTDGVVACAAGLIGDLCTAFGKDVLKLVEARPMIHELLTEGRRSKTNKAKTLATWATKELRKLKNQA
#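 FRET biosensor Rango (snurportin 1 IBB between N-terminal EYFP and C-terminal Cerulean), 50 nM in PBS/1 mM DTT/0.02% Tween-20/0.1% BSA, preincubated 5 min RT with compound; 0.125 microM importin beta added, 45 min RT, CFP/YFP FRET ratio read.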
# Rango dissoc inh: inhibition of RanGTP-driven Rango-importin beta dissociation; O95149+P62826; Biochemical FRET Rango-importin beta, RanGTP-induced dissociation; Potency, µM (top dose mostly 46.1 µM), without a hit: top-dose activity change, negative = inhibition; hit rate 0.071% among 340,000; active means falling FRET ratio curve, often poorly fitted, with flat reads before Ran was added; inconclusive means other falling curves, or compound fluorescence or quenching; inactive means flat or rising ratio curve;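 further: potency means the concentration at half of the fitted maximal effect; % of control where 0% means no effect; nearly all actives have a fitted effect of over 45% in size; -100% = wells without RanGTP and RCC1; the record marks most hits as doubtful in a second field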
#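 FRET read at 45 min, room temperature: inhibitors block the CFP/YFP signal rise when RanGTP (0.6 uM Ran, 2 mM GTP, 0.2 uM RCC1) frees Rango (0.1 uM) from importin beta (0.25 uM). Pre-read after 5 min compound exposure flags interference.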
# miR-21 reporter: miR-21 reporter, rising signal | AID 2288 | Potency, µM (highest dose often 38.3 µM), for the others: top-dose reporter change, positive = more light | HeLa miR-21 FLuc reporter, luciferase, 48 h | 340,000 tested, under 10 active; active = well fitted rising curve with a large enough effect; inconclusive = small, poorly fitted or top-dose-only effect; inactive = no such curve, though single readings can be large or run the other way;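 further: % of control where 0% means no effect; miR-21 action dims this reporter so a rising signal means less miR-21 action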
#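 Luminescence from a firefly luciferase reporter carrying a miR-21 binding site downstream, stably expressed under a CMV promoter in HeLa cells that make miR-21 endogenously, reports miRNA modulation after 48 h compound exposure up to approximately 40uM final.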
# * hit, by the source's call; u = inconclusive; x = not tested or not shown; & = joins results of further samples; [ ] = another dose, or the depositor's remark. An excerpt (hit frequency here may not be typical).
# The first 2 entries as a preview:
Compound,GLA inh pH 4.5,Rango complex inh,Rango dissoc inh,miR-21 reporter
O=C1CCN=C(Nc2ccc(F)cc2)N1Cc1ccccc1,-8,-2.9%,10%,0%
CC(=O)c1cnn(-c2ccc(Cl)c(Cl)c2Cl)c1C,5,-0.2%,13%,7%

# The whole of this part, from the first entry:
Compound,GLA inh pH 4.5,Rango complex inh,Rango dissoc inh,miR-21 reporter
O=C1CCN=C(Nc2ccc(F)cc2)N1Cc1ccccc1,-8,-2.9%,10%,0%
CC(=O)c1cnn(-c2ccc(Cl)c(Cl)c2Cl)c1C,5,-0.2%,13%,7%
CCCN(CCC)CCNC(=O)C1CC(=O)N(c2ccc(OC)cc2)C1c1ccc(OC)cc1 (centres undefined),-2,-6.3%,-11%,-8%
Brc1ccc(-c2nnc3n2-c2ccccc2CC3)cc1,6,0.0%,3%,-22%
CCCCCn1c(=O)c(C(=O)c2ccccc2)nc2ccccc21,-3,3.6%,-6%,-3%
CC(c1ccon1)N(C)C(=O)CCc1nnc(C2(c3ccc(Cl)cc3)CCC2)o1 (centres undefined),4,1.4%,-6%,-38%
Cc1cccc(OCC(=O)Nc2ccc(N3CCCC3)cc2)c1C,-3,u,-11%,-7%
O=[N+]([O-])c1ccc(CNCc2cc(Cl)ccc2O)cc1,x,-5.0%,u,x
CC(C(=O)NC1CC1)c1ncc(C(F)(F)F)cc1Cl (centres undefined),0,-3.8%,-7%,-1%
NC(=O)c1ccsc1NC(=O)COC(=O)[C@@H]1CCCN1C(=O)c1cccs1,x,-1.7%,-1%,x
COc1cccc(NC(=O)CN(C)C(C)C(=O)Nc2ccc(S(=O)(=O)N3CCCC3)cc2)c1 (centres undefined),-7,-4.1%,6%,1%
COc1cc(C#N)ccc1OCC(=O)NCCC1=CCCCC1,x,2.5%,4%,x
N#Cc1ccccc1NC(=O)c1cccc(COc2ccc(Cl)cc2Cl)c1,5,-1.8%,1%,-80%
CC(=O)Nc1ccc(N2C(=O)CSC2c2ccc(F)cc2)cc1 (centres undefined),1,-0.5%,2%,-4%
COc1ccc(-c2nn3c(-c4ccccc4)nnc3s2)cc1OC,-16,-0.4%,-19%,-48%
O=c1cc(O)c(-c2ccc(Cl)c(Cl)c2)c(Cl)[nH]1,5,2.8%,-2%,-8%
CCn1c(-c2ccsc2)nc2c1c(=O)[nH]c(=O)n2Cc1ccccc1,5,2.7%,2%,-4%
CC(C)(C)[C@H]1CCC(=O)N([C@H](CN=[N+]=[N-])Cc2ccccc2)CC1,x,5.2%,2%,3%
O=S(=O)(/N=C(\c1ccc(Cl)cc1)N1CCOCC1)c1ccccc1,-12,-0.2%,5%,-8%
Cc1ccc2c(c1)c(-c1ccccc1)nc1nncn12,-2,-2.5%,22%,-15%
O=C(C1CCC(=O)N(C2CCCC2)C1)N1CCN(Cc2cccc(Cl)c2)CC1 (centres undefined),x,5.4%,8%,0%
COC(=O)c1ccsc1NC(=O)CSc1nnnn1Cc1ccccc1,-12,2.7%,7%,-1%
COc1ccccc1NC(=O)CN1CCN(CC(=O)Nc2cc(NC(C)=O)ccc2OC)CC1,-3,-0.9%,-5%,4%
COc1ccc(C)cc1-n1nnnc1SCC(=O)c1cc(C)n(Cc2ccco2)c1C,3,-2.1%,31%,-10%
CC(C)(C)Nc1nc(N2CCCC2)nc(N2CCCC2)n1,1,u,-5%,-5%
CCn1c(CN2CCOCC2)nnc1SCC(=O)Nc1cccc(C)c1,x,-0.2%,-11%,1%
CC(=O)Nc1nonc1-c1nc2ccccc2n1Cc1ccccc1,-9,1.9%,-10%,-18%
COc1cc(Cc2nccc3cc(OC)c(OC)cc23)c(NC(C)=O)cc1OC,x,3.1%,3%,6%
Cc1nc2sccn2c(=O)c1S(=O)(=O)N1CCN(c2cccc(C(F)(F)F)c2)CC1,x,3.5%,34%,0%
O=S(=O)(NCCCN1CCOCC1)c1ccc(F)c(Cl)c1,x,0.6%,-2%,x

# (continued)
Compound,GLA inh pH 4.5,Rango complex inh,Rango dissoc inh,miR-21 reporter
CCn1c(SCC(=O)Nc2ccccc2)nc2c1c(=O)n(C)c(=O)n2C,-10,0.4%,-8%,-1%
CCc1cccc(OCC(=O)Nc2ccc(S(=O)(=O)Nc3onc(C)c3C)cc2)c1,-2,-5.0%,-12%,-1%
COc1ccc(C(=O)COC(=O)c2ccc(-n3cnnn3)cc2)c(OC)c1,x,-2.2%,-11%,x
CCN(CC)CC(O)COc1ccccc1C(=O)CCc1ccccc1 (centres undefined),7,0.3%,-17%,-3%
CCC(=O)Nc1c(-c2ccc3ccccc3c2)nc2ccccn12,x,4.3%,1%,-27%
CCC(C)(C)c1ccc(OCCCC[n+]2ccc(C)cc2)c(C(C)(C)CC)c1,-6,5.9%,-10%,u
C/C(Cn1cnc([N+](=O)[O-])n1)=N\NC(=O)c1cccnc1,3,-3.4%,1%,-4%
CCOc1ccccc1C(=O)NCC(=O)N(C)Cc1cccnc1,x,0.2%,1%,-1%
CCCNC(=O)C1CCN(S(=O)(=O)c2ccc(-c3nn[nH]n3)cc2)CC1,-2,-7.3%,4%,-12%
COc1cc(CN2CCC(Cc3ccccc3)CC2)cc([N+](=O)[O-])c1O,x,0.4%,-11%,-6%
CN(C(=O)c1cccc(NC(=O)Cc2cccc(NC(=O)C3CCCN(C(=O)C4CCCC4)C3)c2)c1)C1CC1 (centres undefined),x,-1.8%,7%,x
Cc1ccc(-c2n[nH]c(=S)n2/N=C/c2ccc(C)o2)cc1,-11,5.5%,1%,-14%
CCOc1ccccc1Nc1cc(C)nc2nnnn12,4,0.4%,10%,0%
Cc1cccn2c(NCc3ccc4c(c3)OCO4)c(-c3ccc(O)cc3)nc12,8,0.1%,28%,0%
CCOc1ccc(CNC(=O)C2CCN(S(=O)(=O)CC)CC2)cc1OC,-3,-3.0%,-4%,-4%
CCN(CC)C(=O)CSc1nnc(-c2ccco2)n1Cc1ccco1,-6,-1.0%,0%,-3%
NNC(=O)CSc1nc(-c2ccccc2)cn1-c1ccccc1,8,0.0%,-4%,2%
Cc1ccc(-c2nnn(CC(=O)N(CC(=O)NC3CCCC3)c3ccccc3F)n2)o1,x,-1.7%,22%,2%
CC1CCC(C#N)(N(C)C(=O)CSc2nnc(C3CC3)n2C2CC2)CC1 (centres undefined),x,-6.1%,20%,x
O=C(NC(Cc1ccccc1)C(=O)O)/C(=C\c1ccc(Br)cc1)NC(=O)c1ccc(Br)o1 (centres undefined),x,u,u,-5%
Cc1[nH]n(-c2ccccc2)c(=O)c1/C=N/N(c1ccccc1)c1ccccc1,-29,5.7%,-3%,0%
CC(=O)COc1ccc2c(-c3ccccc3)cc(=O)oc2c1C,x,-2.8%,-5%,-5%
O=C(NNC(=O)c1cc(F)c(F)cc1Cl)c1ccc(NS(=O)(=O)c2cccs2)cc1,x,0.8%,-11%,x
OCCCN1CCN(CCCOc2ccccc2-c2ccccc2)CC1,1,5.3%,8%,-4%
CCOC(=O)c1cc(-c2ccccc2)sc1NC(=O)c1cc(OC)c(OC)c(OC)c1,8,1.6%,-3%,0%
S=C(Nc1ccc(Cl)cc1)Nc1ccc2cn[nH]c2c1,-14,-1.2%,-8%,-12%
Cc1ccc(Cl)c(OCC(=O)Nc2cccnc2)c1,x,0.0%,2%,-66%
Cc1ccc(CNC(=O)CN2C(C)CCCC2C)cc1 (centres undefined),-5,1.3%,0%,14%
COCCN(C(=S)Nc1cccc(C)c1)C(C)c1cccnc1 (centres undefined),2[21.1 µM],0.2%,1%,-8%
COc1cc(C(=O)NCc2nnc(SCC(=O)NC3CCCCC3)o2)cc(OC)c1OC,x,u,-20%,-1%

# Additional results follow.
Compound,GLA inh pH 4.5,Rango complex inh,Rango dissoc inh,miR-21 reporter
CCN(c1ccccc1)S(=O)(=O)c1ccc(Cl)c(NC(=O)COC(=O)c2ccc(Cl)c(N)c2)c1,-2,-1.6%,3%,7%
OC(COC(c1ccc(Cl)cc1)c1ccc(Cl)cc1)CN1CCc2ccccc2C1 (centres undefined),-10,-0.2%,10%,25%
CCCCNC(=O)Nc1nnc(-c2ccc(OCC)cc2)o1,6,-4.5%,-3%,-10%
CCN(CC)S(=O)(=O)c1cccc(C(=O)NNC(=O)C2=NN(c3ccccc3)C(=O)CC2)c1,x,-2.7%,0%,-2%
CN(/N=C/c1cc(Br)cc(Br)c1O)c1ccccc1,x,u,-13%,-4%
CCc1ccc(/C=C2\SC(=S)N(CCC(=O)N3CCN(C)CC3)C2=O)cc1,x,0.7%,-9%,1%
O=C(Cc1ccccn1)Nc1ccccc1,-4,-3.5%,8%,-11%
O=C(CN1C(=O)c2cccc3cccc1c23)NCc1ccc2c(c1)OCO2,-1,u,u,-10%
CCN(CC)C(=O)c1ccc(S(=O)(=O)Cc2ccc(C)cc2)c([N+](=O)[O-])c1,x,-0.5%,7%,14%
Cc1cc(C)n(-c2cc(N3CCN(C(=O)c4cccc(F)c4)CC3)ccc2[N+](=O)[O-])n1,-3,4.8%,7%,7%
COc1ccc(NC2CS(=O)(=O)CC2OC(=O)c2ccc(F)cc2)cc1 (centres undefined),0,-3.0%,-6%,0%
COc1cccc(C(=O)NCCCNC(=O)c2cccnc2)c1,x,2.4%,-25%,4%
CCc1ccc(CNC(=O)C2CCCN(c3nnc(C)c4c(C)n(-c5ccccc5)nc34)C2)cc1 (centres undefined),x,u,1%,18%&20%
CCOc1cc(N2CCOCC2)c(OCC)cc1NC(=O)C1=COCCO1,x,3.5%,12%,x
Cc1ccc(NC(=O)C2=C(O)CCn3c2nc2ccccc23)cc1,-8,u,16%,-13%
NS(=O)(=O)c1ccc(CCNC(=O)c2ccccc2F)cc1,-9,-2.6%,-12%,-6%
CC1(C2CC2)NC(=O)N(CC(=O)N2CCN(S(=O)(=O)c3ccc(F)c(F)c3)CC2)C1=O (centres undefined),x,-0.3%,-6%,x
COc1ccc(N)cc1C#N,-2,1.6%,-19%,-14%
COC(=O)C1=C(N)Oc2cc(C)n(CC3CCCO3)c(=O)c2C1c1ccc(Cl)c(Cl)c1 (centres undefined),-7,0.3%,-15%,9%
CC1=NNC(=O)C1Cc1c(Cl)cccc1Cl (centres undefined),x,2.3%,2%,x
CC(C)C12CN3CC(C(C)C)(CN(C1)C3c1ccccc1O)C2=O (centres undefined),x,-1.9%,21%,10%
COCCN(C(=O)CSCC(=O)Nc1cccc(C)c1)c1c(N)n(Cc2ccccc2)c(=O)[nH]c1=O,x,-1.0%,-3%,x
CCN(CC)CCCNC(=O)CN1C(=O)CSc2ccc(S(=O)(=O)N3CCOCC3)cc21,-2,4.9%,-4%,-8%
CCOC(=O)C1=NOC(CNC(=O)C2=NOC(CNC(=O)c3c(-c4ccccc4Cl)noc3C)C2)C1 (centres undefined),-1,5.2%,26%,-2%
O=CNCc1nc2ccccc2n1CCCc1ccccc1,x,-2.2%,22%,-5%
CCOC(=O)c1c(C)[nH]c(C(=O)OCC(=O)c2ccc3c(c2)NC(=O)CO3)c1C,x,-1.7%,6%,x
COCCNC(=S)N=Nc1c(O)[nH]c2ccc([N+](=O)[O-])cc12,-11,1.7%,1%,-1%
COCC(=O)Nc1ccc(S(=O)(=O)Nc2ncccn2)cc1,-1,x,x,-2%
Cc1ccc(NC(=O)COC(=O)C2CC3CCCC(C2)C3=O)c([N+](=O)[O-])c1 (centres undefined),x,0.0%,28%,x
Cc1ccc(C2(C)NC(=O)N(CC(=O)NNC(=O)c3ccoc3C)C2=O)cc1 (centres undefined),x,-1.6%,-22%,x
Cc1[nH]n(-c2ccccc2)c(=O)c1C(=O)c1cccc(F)c1,6,u,1%,28%
COc1cccc(-c2cc(C(=O)NCC3CCCO3)c3cc(Br)cc(C)c3n2)c1 (centres undefined),x,-1.8%,36%,-1%

# Bioassay records (PubChem BioAssay)
